Screening data deposited in PubChem by several laboratories.
MT1-MMP act inh: blockers of MT1-MMP proenzyme processing, primary screen, HT1080 RFP-PRO-GFP cells, GFP/RFP fluorescence; Matrix metalloproteinase-14 (Homo sapiens), P50281; hit rate 0.061% among 360,000; GFP/RFP ratio change, % at 20 µM; GFP/RFP ratio fluorescence, overnight; percent of plate control window, DMSO zero;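 active = GFP/RFP ratio change of at least 30% with cell ATP level not reduced by more than half and red fluorescence within 50% of control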; also: strong numbers were not always called active
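system = RFP-PRO-GFP reporter HT1080 cells | dosing = 20 µM single dose, 1% DMSO | timing = overnight cell settling, then overnight compound exposure, 37 °C, 5% CO2 | read-out basis = GFP/RFP fluorescence ratio | controls = DMSO and RFP-L50D-GFP cell wells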
Env fusion inh: inhibitors of HIV-1 Env-driven cell-cell fusion, primary screen, HeLa-JRFL effector, CEM21 target cells, luciferase | hit rate 1.1% among 360,000 | AID 651610, 2012 | inhibition, % at 12.3 µM;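 active = mean replicate inhibition score of at least 50 and every replicate individually at or above 50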;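 also: 0% = plate neutral controls and 100% = maraviroc near 300 nM; one replicate is shown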
CSC inhib: cancer stem cell viability inhibitors, primary screen, luminescence; inhibition, % at 7.5 µM; AID 2717, 2010; cancer stem cell-like cells viability; hit rate 1.1% among 300,000;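 active = mean at 75% or more and at least half the replicates too; tested in HMLE shEcad cells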;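 also: 0% = median of negative and 100% = median of positive control wells; the first replicate is given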
eIF4H FP inh: human eIF4H binding inhibitors, primary screen, translation initiation inhibitor project, biochemical, uHTS, fluorescence polarization; hit rate 0.94% among 290,000; inhibition, % at 35 µM; eIF4H fluorescence polarization binding assay; Eukaryotic translation initiation factor 4H (Homo sapiens), Q15056;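 active = 50% or more with normal probe brightness, or confirmed in later tests; about a fifth of its hits are not listed in these tables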;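 also: calls also rest on retests at 20 µM and on dose response follow-up; 0% = protein and probe with vehicle and 100% = probe without protein; strong numbers were not always called active; many hits fall short of the cut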
Yeast UUG start: modulators of yeast start codon fidelity, primary screen, whole organism, S. cerevisiae, single point, plate reader. activity score, % at 18.7 µM. hit rate 0.13% among 350,000. S. cerevisiae UUG-firefly luciferase reporter, luminescence/redox ratio;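 active = replicate mean at a twofold rise or more, about +100% in these data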;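 also: firefly luciferase made from a UUG start codon reports start codon fidelity; reporter light over untreated wells divided by growth signal over untreated wells; some hits fall short of that in this replicate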
PABP polyA inh: PABP poly(A) RNA binding inhibitors, primary screen, biochemical, fluorescence polarization, uHTS | Polyadenylate-binding protein 1 (Homo sapiens), P11940 | inhibition, % at 35 µM | hit rate 1% among 290,000;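 active = 50% or more with normal probe brightness, or confirmed in later tests; about a fifth of its hits are not listed in these tables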;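 also: calls also rest on retests at 20 µM and on dose response follow-up; controls were probe without protein and protein plus probe with vehicle; some compounds called inactive have numbers as strong as hits; many hits fall short of the cut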
Rce1 inh: yeast Rce1p protease inhibitors, primary screen, biochemical, fluorescence, cell-free homogeneous; CAAX prenyl protease 2 (Saccharomyces cerevisiae (strain ATCC 204508 / S288c)), Q03530; yeast membranes, quenched prenylated peptide cleavage fluorescence; calls only; hit rate 0.27% among 290,000; AID 2563, 2010;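 active = fall in fluorescence gain of 50% or more versus controls, with final raw signal at or below 3038400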;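 also: plate controls were neutral control wells for no effect and wells lacking membranes for full effect; tested at 10 µM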
Target sequence (Q03530 whole entry, looked up): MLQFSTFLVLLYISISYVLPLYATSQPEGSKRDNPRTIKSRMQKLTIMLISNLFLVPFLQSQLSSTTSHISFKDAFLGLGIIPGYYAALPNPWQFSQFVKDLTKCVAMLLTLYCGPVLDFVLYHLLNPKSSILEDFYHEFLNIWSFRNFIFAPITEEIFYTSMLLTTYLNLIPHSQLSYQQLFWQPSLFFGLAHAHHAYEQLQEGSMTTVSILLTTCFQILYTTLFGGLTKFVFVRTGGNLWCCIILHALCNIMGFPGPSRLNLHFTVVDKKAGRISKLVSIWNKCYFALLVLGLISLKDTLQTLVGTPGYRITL
eIF4H FP inh retest: second read-out of eIF4H FP inh, no call of its own (marks repeat the call); inhibition, %; compound at 20 µM; confirmation average;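 mean of two retest wells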
PABP polyA inh retest: second read-out of PABP polyA inh, no call of its own (marks repeat the call); inhibition, %; compound at 20 µM; confirmation repeats;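 mean of two retest wells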
MT1-MMP act inh RFP: second read-out of MT1-MMP act inh, no call of its own (marks repeat the call); RFP signal change, %; measured here: RFP expression control read;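 0 = vehicle wells; hits needed this value within 50% of zero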
Active calls of the source: *; i = inactive; · = not tested or not shown.

SMILES	MT1-MMP act inh	MT1-MMP act inh RFP	Env fusion inh	CSC inhib	eIF4H FP inh	Yeast UUG start	PABP polyA inh	Rce1 inh	others
CCN1C(c2ccc(F)cc2)=CS/C1=C(\C#N)c1nnc2n1-c1ccccc1SC2	-3	-7	-4	9	-1	-24	5	i
Cc1cccc(-n2c(O)c(/C=N/NC(=O)c3ccccc3Cl)c3ccccc3c2=O)n1	-3	6	8	-9	6	-17	4	i
CCCC(=O)NC(NC(=S)Nc1c(C)n(C)n(-c2ccccc2)c1=O)C(Cl)(Cl)Cl (stereo not drawn)	-1	5	·	-14	-8	0	14	i
O=C(COC(=O)c1cnccn1)c1ccc(C2CCCCC2)cc1	0	0	3	-7	-9	-36	-4	i
CCCn1c(SCC(=O)NCCc2ccc(OC)c(OC)c2)nc2c1c(=O)n(C)c(=O)n2C	-3	-5	11	1	-8	-6	-4	i
Cn1cc(SCC(N)=O)c2ccccc21	13	9	0	10	-19	-17	-1	i
COc1cc(C2CC(=O)Oc3cc(OC)c(OC)c(OC)c32)cc(OC)c1OC (stereo not drawn)	1	0	-30	·	·	-6	·	·
O=C(c1nn2cccnc2c1Cl)N1CCN(c2ccccc2)CC1	-4	3	·	-6	13	7	41	·
O=C(CSc1ccccc1)Nc1ccc(N2CCOCC2)c(F)c1	-3	3	11	11	-6	-8	0	i
O=C(Cc1cccs1)Nc1nncs1	-2	2	-94	-8	1	-21	-4	i
CN(CCC1CCCCO1)C(=O)CCc1nnc(Cc2c[nH]c3ccccc23)o1 (stereo not drawn)	-2	3	14	-11	-10	-5	11	i
Cc1ccnc(SCC(=O)c2ccc(Br)cc2)c1C#N	0	3	-38	·	6	·	14	i
Cn1c(-c2sccc2OCc2ccccc2)n[nH]c1=S	4	0	-9	-2	0	-18	-10	i
O=S1(=O)CCO[C@H]2Cc3ccccc3[C@H]2N1Cc1cccc(Cl)c1	2	-4	0	9	-2	-3	8	i
CCN(C[C@H]1N[C@@](C)(C(=O)OC)[C@H]2C(=O)N(C)C(=O)[C@@H]12)S(=O)(=O)c1ccc(C)cc1	1	3	-32	·	·	-18	·	·
Cn1c(=O)n(C)c2cc(NC(=O)CCl)ccc21	14	6	-42	-6	-9	·	0	i
Cc1cc(C(=O)Nc2ccc(F)cc2)c2ccccc2n1	-1	-2	-11	2	-4	-15	-3	i
O=C(OC1CCCCC1=O)c1ccc(S(=O)(=O)Nc2ccccc2)cc1 (stereo not drawn)	0	-12	5	-14	-12	-10	4	i
COc1cccc(N2CC(C(=O)Nc3nnc(SCCN4CCOCC4)s3)CC2=O)c1 (stereo not drawn)	4	4	2	-11	0	-3	0	i
CN(C(=O)COC(=O)CNC(=O)c1ccc(Cl)cc1Cl)c1ccccc1	1	3	11	-8	3	·	-6	i
COC(=O)C/C=C/[C@@H](C)[C@@H](/C=N/O[C@H](C)c1cn([C@@H]2COC[C@H]2O)nn1)NS(=O)(=O)c1ccc(C)cc1	·	·	·	-1	5	·	0	i
CC(=O)[C@H]1CCC2C3CC=C4C[C@@H](O)CC[C@]4(C)C3CC[C@@]21C (stereo partly drawn)	-4	-2	-105	-14	·	-3	·	·
Cc1ccc(-n2nnnc2SCC(=O)Nc2nc(-c3ccc(F)cc3)cs2)cc1C	2	-1	-44	12	-5	-15	-6	i
CCn1c(SCC(=O)NCc2ccco2)nnc1C1CCCC1	-4	2	27	2	-9	-10	5	i
CC(C)(C)c1ccc2c(c1)OC(C(=O)N/N=C\c1ccc[nH]1)CO2 (stereo not drawn)	-20	-29	50	119*	0	-17	1	i
CCCCNC(=O)[C@H]1C[C@H]1[C@@H](O)[C@H](CO)NC(=O)[C@H](COCc1ccccc1)NC(=O)OC(C)(C)C	-2	-2	·	-16	-8	45	9	i
O=C(Nc1ccc(N2CCOCC2)cc1)C1CCCCC1	2	6	-126	12	-11	6	-1	i
O=C(C1CCN(S(=O)(=O)N2CCC3(CC2)OCCO3)CC1)N1CCC(Cc2ccccc2)CC1	2	-8	·	-11	12	-11	-1	i
N/C(=N\O)c1ccncc1	4	5	10	-5	7	-23	1	i
CCC(=O)OC1(C)C(=O)C=C2C=C(c3ccsc3)OC=C2C1=O (stereo not drawn)	5	23	·	-4	93*	-15	51*	i
COc1ccc(NC(=O)c2cccc(N3C(=O)NC4CC3(C)Oc3ccccc34)c2)cc1 (stereo not drawn)	3	6	5	-9	-5	4	1	i
CCOc1cc(/C=C/c2ccc3cccc([N+](=O)[O-])c3n2)ccc1O	2	-9	-13	7	5	-14	10	i
Cc1nnc(SCC(=O)Nc2cccc(S(=O)(=O)N3CCCCC3)c2)s1	7	-4	·	14	·	-24	·	·
Cc1cc(C)c(NC(=S)N(C)C)cc1C	0	-2	-12	-3	11	-16	2	i
COc1cccc(C(c2nnnn2Cc2ccccc2)N2CCN(C3CCCC3)CC2)c1OC (stereo not drawn)	2	4	·	-2	-4	-19	16	i
CC(=O)c1ccc(OCc2nnn(CC(=O)O)c2-c2ccccc2)cc1	-4	5	-9	·	·	-30	·	·
CC1(C(=O)Nc2cccc3ccccc23)CCN1C(=O)Cc1ccccc1Cl (stereo not drawn)	1	-1	5	·	·	-4	·	·
CCN(CC)S(=O)(=O)c1cccc(-c2cn3cc(C)ccc3n2)c1	10	-4	·	0	57*	·	3	i	eIF4H FP inh retest=81*;PABP polyA inh retest=44
CCn1c(SC(C)C(=O)O)nc2sc3c(c2c1=O)CCC3 (stereo not drawn)	3	-2	·	-17	93	-13	4	·	eIF4H FP inh retest=0;PABP polyA inh retest=11
CC1CCc2cc(F)cc3c(O)c(C(=O)NCCN(C)C)c(=O)n1c23 (stereo not drawn)	0	3	-7	6	-9	7	-2	i
CCc1cc2cc(C)ccc2nc1SCC(=O)Nc1cc(C)on1	-6	-5	6	·	2	-20	2	i
CC(=O)N1c2ccccc2NC2=C(C(=O)CCC2)C1c1ccco1 (stereo not drawn)	·	·	1	3	39	-8	-10	i
CCN(CC(=O)Nc1cc(Cl)ccc1C)C(=O)CCOc1ccccc1C	7	0	4	2	-8	-8	-6	i
Cc1cc(Cl)cc(Cl)c1OCCOCCN(C)C	-19	-2	-3	42	18	-5	-9	i
Cc1cccc(-c2sc(Nc3ccccc3)n[n+]2-c2ccc(F)cc2)c1	-2	0	-9	-14	-14	-39	14	i
O=C(Cc1n[nH]c(=O)c2ccccc12)Nc1cc(Cl)ccc1-n1cncn1	0	-2	4	-17	·	-7	·	i
COc1ccc(CN2CCCC(N3CCc4ccccc4C3)C2)c(O)c1 (stereo not drawn)	1	4	0	-10	-3	-6	-7	i
O=C(CN1C(=O)c2ccc([N+](=O)[O-])cc2C1=O)Nc1ccccc1N1CCCC1	2	4	-2	-9	·	16	·	i

Among those listed so far, these contain an aryl methoxy group:
SMILES	MT1-MMP act inh	MT1-MMP act inh RFP	Env fusion inh	CSC inhib	eIF4H FP inh	Yeast UUG start	PABP polyA inh	Rce1 inh	others
CCCn1c(SCC(=O)NCCc2ccc(OC)c(OC)c2)nc2c1c(=O)n(C)c(=O)n2C	-3	-5	11	1	-8	-6	-4	i
COc1cc(C2CC(=O)Oc3cc(OC)c(OC)c(OC)c32)cc(OC)c1OC (stereo not drawn)	1	0	-30	·	·	-6	·	·
COc1cccc(N2CC(C(=O)Nc3nnc(SCCN4CCOCC4)s3)CC2=O)c1 (stereo not drawn)	4	4	2	-11	0	-3	0	i
COc1ccc(NC(=O)c2cccc(N3C(=O)NC4CC3(C)Oc3ccccc34)c2)cc1 (stereo not drawn)	3	6	5	-9	-5	4	1	i
COc1cccc(C(c2nnnn2Cc2ccccc2)N2CCN(C3CCCC3)CC2)c1OC (stereo not drawn)	2	4	·	-2	-4	-19	16	i
COc1ccc(CN2CCCC(N3CCc4ccccc4C3)C2)c(O)c1 (stereo not drawn)	1	4	0	-10	-3	-6	-7	i

Further entries:
SMILES	MT1-MMP act inh	MT1-MMP act inh RFP	Env fusion inh	CSC inhib	eIF4H FP inh	Yeast UUG start	PABP polyA inh	Rce1 inh	others
Nc1cc(N)nc(CS)n1	-1	-1	-9	-12	3	8	-6	i
S=c1nc(NCCc2ccccc2Cl)c2ccccc2[nH]1	-8	-8	-2	-2	2	-3	5	i
COc1ccc(NC(=O)NCc2ccncc2)c(OC)c1	3	9	-39	-17	-12	-8	2	i
CCCNC(=O)C1(C)CCCN(C/C=C/c2ccccc2)C1 (stereo not drawn)	1	0	-27	·	·	-4	·	·
O=[N+]([O-])c1ccc(S(=O)(=O)N2CCN(c3ccnc4cc(Cl)ccc34)CC2)cc1	0	-7	43	2	4	12	7	i
Clc1ccccc1C1=Nn2c(nnc2-c2ccncc2)SC1	-14	-14	92*	-1	-8	-8	-11	i
CCC(C)[C@H](NC(=O)OC(C)(C)C)C(=O)N/N=C/C1=Cc2ccccc2OC1 (stereo partly drawn)	-7	-13	·	12	-13	-12	-1	i
O=C1CN(C(=O)COC(=O)c2ccc([N+](=O)[O-])o2)c2ccccc2N1	-3	4	9	·	·	2	·	·
COc1ccc(S(=O)(=O)N2CCOC2CNC(=O)C(=O)NCCc2ccccc2OC)cc1 (stereo not drawn)	2	-4	·	-14	2	-1	-18	i
CCO[C@H]1OC(C(=O)N2CCCCCCC2)=C[C@@H](c2coc3ccccc3c2=O)[C@@H]1CCCO	-3	-1	8	-1	7	1	0	i
COc1ccc(C(=O)NCC(=O)N2CCN(C(=O)c3ccco3)CC2)cc1	2	1	·	-10	-16	6	1	i
CCC(C(=O)OCC(=O)Nc1cc(C)ccc1OC)c1ccccc1 (stereo not drawn)	2	-1	13	·	3	·	25	i
N/C(=N\OC(=O)Cc1ccccc1)c1ccc([N+](=O)[O-])cc1	4	6	·	13	-6	·	4	i
O=C(Cn1c(=O)oc2cc(S(=O)(=O)N3CCCC3)ccc21)N1CCCC1	2	4	-6	-19	3	-9	-8	i
CC(C)(C)OC(=O)NNC1CC(=O)N(c2ccccc2F)C1=O (stereo not drawn)	2	2	24	-11	-7	-13	0	i
CCN1CCN(c2sc(S(=O)(=O)CC)nc2S(=O)(=O)c2ccc(C)cc2)CC1	-1	0	8	·	·	-16	·	·
